Screens as filed in PubChem.
WNV protease inh – WNV NS2B-NS3 proteinase inhibition; AID 577; z-score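 (tested at a level between 10 and 100 µM)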; P06935; WNV NS2B-NS3 protease, fluorogenic substrate Ex360/Em465; stronger effect = lower value; 0.18% of 65,000 active;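 active means z-score at -3 or under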;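 further: score is relative to mean and spread of the compound wells of a plate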
Target sequence (P06935 1371-1501 limits assumed): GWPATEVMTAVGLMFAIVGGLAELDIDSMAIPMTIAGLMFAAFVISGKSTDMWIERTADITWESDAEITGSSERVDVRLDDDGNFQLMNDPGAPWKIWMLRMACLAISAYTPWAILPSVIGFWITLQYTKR
Target sequence (P06935 1502-1679 limits assumed): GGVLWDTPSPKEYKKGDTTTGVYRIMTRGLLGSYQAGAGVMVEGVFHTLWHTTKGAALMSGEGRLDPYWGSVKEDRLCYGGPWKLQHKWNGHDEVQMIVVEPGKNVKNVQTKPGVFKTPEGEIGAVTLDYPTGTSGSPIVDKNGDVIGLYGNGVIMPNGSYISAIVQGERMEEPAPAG
MT1-MMP promoter – inhibitors of MT1-MMP promoter transcription, cell-based, luciferase reporter, luminescence (AID 618) | 0.62% of 87,000 active | MT1-MMP promoter luciferase reporter cells, luminescence | calls from a first round at 10 µM; hits with a dose series show EC50 in µM;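 active means over half of the reporter light lost at 10 µM or EC50 under 50 µM; inactive means the rest and hits that failed the dose series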;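 further: actives suppress MT1-MMP promoter-driven transcription so potencies describe inhibitors; HT1080 fibrosarcoma cells; overnight exposure; toxic or luciferase-blocking compounds were not removed from the actives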
Hsc70 ATP site – small molecules displacing fluorescent ligand from Hsc70 – biochemical, fluorescence polarization, primary screen (AID 568); Hsc70 fluorescence polarization, probe displacement; higher % means a stronger effect; strong numbers were not always called active; displacement, % at 20 µM, or IC50 in µM where a hit was titrated; 83,000 tested, under 10 active;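 active means displacement above 50% without optical interference and an IC50 on retest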;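 further: ATPase domain with a fluorescein-tagged ATP probe; 0% = vehicle and 100% = excess ADP; read after one hour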
* = called active by the depositor; i = inactive; / = not tested or not shown; + = active, no number.

SMILES	WNV protease inh	MT1-MMP promoter	Hsc70 ATP site
COc1ccc(N2CCN(C(=O)Nc3cccc(C(F)(F)F)c3)CC2)cc1	/	i	-0.4%
CCOc1ccccc1N1CCN(C(=O)c2ccccc2)CC1	-0.23	i	-2.0%
CCOC(=O)c1ccc(NC(=O)COc2ccc(S(=O)(=O)N3CCCC3)cc2)cc1	/	i	9.5%
CCn1c(SCC(=O)Nc2nc(C)cs2)nnc1C(NC(=O)c1ccccc1Cl)C(C)C (stereo not given)	0.3	i	1.2%
Cc1cccc(-n2nnnc2SCc2csc(-c3ccccc3)n2)c1	-0.00463	i	-2.6%
CC(=O)NC1(C(F)(F)F)C(=O)Nc2c1c(=O)[nH]c(=O)n2Cc1ccco1 (stereo not given)	0.11	i	3.8%
CCOc1c(N2CCCCC2)c(=O)c1=O	0.53	i	4.8%
Cc1ccc(NS(=O)(=O)c2cc(C(=O)N3CCN(C)CC3)ccc2C)cc1	-1.2	i	-7.0%
CCOC(=O)CN1C(=O)CSc2ccccc21	-0.59	i	-4.7%
S=c1[nH]nc(-c2cccc(Br)c2)o1	-0.15	i	4.9%
COc1ccc(N2CCN(C(=O)CNC(=O)c3ccc(C(C)(C)C)cc3)CC2)cc1	/	i	-0.5%
Cc1cc2oc(=O)cc(CN3CCC(C)CC3)c2cc1Cl	-0.37	i	3.9%

Reprinted at random: five records from the list.
SMILES	WNV protease inh	MT1-MMP promoter	Hsc70 ATP site
CCOC(=O)CN1C(=O)CSc2ccccc21	-0.59	i	-4.7%
COc1ccc(N2CCN(C(=O)Nc3cccc(C(F)(F)F)c3)CC2)cc1	/	i	-0.4%
CCOc1ccccc1N1CCN(C(=O)c2ccccc2)CC1	-0.23	i	-2.0%
CC(=O)NC1(C(F)(F)F)C(=O)Nc2c1c(=O)[nH]c(=O)n2Cc1ccco1 (stereo not given)	0.11	i	3.8%
COc1ccc(N2CCN(C(=O)CNC(=O)c3ccc(C(C)(C)C)cc3)CC2)cc1	/	i	-0.5%

(cont.)
SMILES	WNV protease inh	MT1-MMP promoter	Hsc70 ATP site
COCCNC(=O)c1snc2ccc(Cl)cc12	0.62	i	-2.3%
Cc1cc(Cl)ccc1OCCCC(=O)N1CCN(C(=O)c2ccco2)CC1	-0.89	i	1.2%
Cc1ccc2nc(SCC(=O)Nc3cc(C(F)(F)F)ccc3N3CCOCC3)[nH]c2c1	/	+	2.6%
O=C(Cn1nnc(-c2ccccc2-n2cnnn2)n1)NCc1ccccc1	0.83	i	-7.3%
Cc1ccc(CCNC(=O)C2CCN(S(=O)(=O)N3CCC4(CC3)OCCO4)CC2)cc1	1.83	i	-3.6%
O=C(CCN1C(=O)C2C3C=CC(C3)C2C1=O)NCCN1CCCc2ccccc21 (stereo not given)	1.35	i	14.1%
CC12CC(c3ccccc3O1)C(C(=O)NCc1ccccc1)C(=O)N2 (stereo not given)	-0.85	i	-3.2%
Nc1ncnc(Nc2ccccc2C(F)(F)F)n1	0.31	i	-3.5%
Cc1ccc2c(CN3C(=O)NC(C)(c4ccc5c(c4)OCO5)C3=O)cc(=O)oc2c1 (stereo not given)	0.02	i	6.3%
Cc1ccc(-c2c(C#N)c(N)nc3c2CCCCC3)cc1	/	i	0.1%
Cc1cc(=O)n2[nH]c(C)c(-c3ccccc3)c2n1	-0.19	i	-1.8%
CC(=O)c1ccc(OCC(O)CN(C)Cc2cccs2)cc1 (stereo not given)	0.04	i	1.0%
COCCCNC(=O)Cn1cc(C(=O)C2CC2)c2ccccc21	2	i	4.7%
Cc1ccc(/C=c2\sc3nc(-c4cccs4)nn3c2=O)o1	-0.89	i	-23.3%
O=C(c1cnn2c(C(F)(F)F)cc(-c3ccc(Br)cc3)nc12)N1CCOCC1	-1.04	i	9.2%
CC1(C)CC(=O)C(C=Nc2ccccc2C(=O)O)=C(O)C1	-1.01	i	4.5%
Cc1cc(C)c(C)c(S(=O)(=O)N2CCN(CC(=O)NC(=O)NCc3ccccc3)CC2)c1C	/	i	-0.7%
CCCCCCn1c(CN2CCN(C)CC2)nc2c1c(=O)n(C)c(=O)n2C	1.06	i	1.1%
Cn1c(=O)c2c(ncn2CC(=O)Nc2cc(Cl)c(Cl)cc2Cl)n(C)c1=O	-0.36	i	0.2%
C=CCN(C)CC/C=C1\c2ccccc2CSc2ccccc21	/	i	-5.1%
O=C(C1CCN(S(=O)(=O)c2cccc3cccnc23)CC1)N1CCn2c1nc1ccccc12	1.08	i	5.4%
CCc1nc(NC(C)C)c2oc3ccccc3c2n1	0.03	i	-2.8%
O=C(NC1CCCC1)C1CCCN(S(=O)(=O)c2cccc3cccnc23)C1 (stereo not given)	-0.1	i	0.3%
O=C(CSc1nc(-c2ccco2)cc(C(F)(F)F)n1)NC1CCCC1	-1.32	i	-0.3%
O=C(OCC(=O)N1CCCCC1)c1cc2ccccc2cc1O	2.01	i	-0.2%
Cc1ccc(Cn2c(=O)c3c(nc4n3CCN4Cc3ccco3)n(C)c2=O)cc1	-0.13	i	-0.3%
Cn1c(=O)n(C)c2cc(S(=O)(=O)NCCc3ccccc3)ccc21	-0.55	i	-4.6%
Cc1cc(C(=O)OCn2nnc3ccccc3c2=O)c(C)o1	0.58	i	0.0%
CCCCCn1nc(C)c(/C=N/NC(=O)c2ccoc2C)c1C	/	i	-3.0%
COc1ccc(S(=O)(=O)n2oc(=O)cc2-c2ccccc2)cc1OC	/	i	2.7%
O=C(NCc1ccco1)c1cc2n(n1)C(C(F)(F)F)CC(c1ccc(F)cc1)N2 (stereo not given)	0.4	i	3.5%
COc1ccc(-n2c(Cc3cc(=O)[nH]c(=O)[nH]3)nnc2SCC(=O)NC2CCCC2)cc1	-1.48	i	-4.3%
O=C(Nc1ccccc1C(=O)NCc1ccc(Cl)cc1)c1ccco1	0.8	i	5.0%
Cn1c(=O)[nH]c(=O)c2c1nc(Br)n2CCCCSc1nc2ccccc2o1	0.83	i	1.7%
CNC(=O)c1ncnnc1N(C)C(=O)NCc1ccccc1	-0.28	i	3.7%
O/N=C(\COc1ccccc1O)c1ccccc1	-0.43	i	-6.8%
C=CCn1c(O)c(N=NC(=O)CNC(=O)/C=C/c2ccco2)c2ccccc21	/	i	6.5%
CCCC(C)NC(=O)COC(=O)c1ccc(Cl)c(S(N)(=O)=O)c1 (stereo not given)	/	i	5.5%
CCC(C)OC(=O)C1=C(C)NC(=O)CC1c1ccccc1OC (stereo not given)	0.42	i	-2.9%
O=C(N1CCOCC1)N1CCN(C(c2ccccc2)c2ccccc2)CC1	/	i	-3.9%
CC(C)C(NC(=O)c1ccco1)C(=O)NCC(c1ccco1)N1CCCCC1 (stereo not given)	-0.23	i	3.2%
COc1ccc(C2=Nc3ccccc3OC2)cc1	/	38.1µM*	1.3%
COC(=O)c1[nH]c2cc(OC)ccc2c1NC(=O)CN1CCN(c2cccc(C)c2)C(C)C1 (stereo not given)	0.17	i	-0.7%
O=C1CCC(C(=O)Nc2cccc3ccccc23)N1 (stereo not given)	-0.57	i	-9.5%
Cc1ccc(C(=O)N2CC3(C(C)C)CN(C(=O)c4ccc(C)cc4)CC(C(C)C)(C2)C3=O)cc1	/	i	2.1%
CCCCNS(=O)(=O)c1ccc(NC(=O)c2c(-c3ccccc3Cl)noc2C)cc1	/	i	0.9%
CCN(CC)c1ccc(NC(=O)CCCCCN2C(=O)c3ccccc3C2=O)cc1	-1.67	i	0.1%
Cn1c(SCC(=O)N2CCCc3ccccc32)nnc1-c1c[nH]c2ccccc12	-0.06	i	2.8%

Single records (already shown).
O=C(NC1CCCC1)C1CCCN(S(=O)(=O)c2cccc3cccnc23)C1 (stereo not given) across the screens: WNV protease inh = -0.1; MT1-MMP promoter = i; Hsc70 ATP site = 0.3%
CCN(CC)c1ccc(NC(=O)CCCCCN2C(=O)c3ccccc3C2=O)cc1 across the screens: WNV protease inh = -1.67; MT1-MMP promoter = i; Hsc70 ATP site = 0.1%
O=C(OCC(=O)N1CCCCC1)c1cc2ccccc2cc1O across the screens: WNV protease inh = 2.01; MT1-MMP promoter = i; Hsc70 ATP site = -0.2%

(continued)
SMILES	WNV protease inh	MT1-MMP promoter	Hsc70 ATP site
O=C(O)C[C@@H](O)C(=O)O	/	i	1.0%
CCCCNCc1cc(Cl)c(OCCC)c(OCC)c1	/	i	1.6%
O=C(COC(=O)c1ccc(S(=O)(=O)N2CCCC2)cc1)NCc1ccc(F)cc1	/	i	2.7%
CCSCC1COC(c2cccn2Cc2ccc(C)cc2)=N1 (stereo not given)	0.14	i	-1.6%
O=C(CCn1cccc1)Nc1ccc(F)cc1	/	i	3.2%
CCOC(=O)CC(=O)Nc1nc2ccccc2s1	-0.66	i	2.2%
O=C(CSc1nc2ncc(Br)cc2[nH]1)Nc1ccc2c(c1)OCO2	0.85	i	1.7%
O=C(c1ccc(Cl)cc1)c1ccc(OCC(O)CN2CCOCC2)cc1 (stereo not given)	0.8	i	0.5%
COC(=O)c1cccnc1-n1c(=O)c2cccnc2n(Cc2ccc(Cl)cc2)c1=O	-1.24	i	-2.8%
O=C(Cc1cccs1)Nc1ccc(S(=O)(=O)N2CCCCC2)cc1	-1.03	i	-1.6%
COc1ccc(C2CC(c3ccc(Cl)cc3Cl)Nc3nc(N)nn32)cc1 (stereo not given)	0.46	i	3.9%
CCn1c(CSc2nc3ccccc3s2)nnc1SCC(N)=O	/	i	4.4%
Clc1ccc(-c2noc(CN3CCCC3)n2)cc1	0.17	i	6.3%
N#Cc1cccc(NC(=O)N2CCC(c3nc4c(nnn4Cc4cccc(Cl)c4)c(=O)[nH]3)CC2)c1	-0.96	i	5.8%
Cc1ccccc1-c1nnc(SCC(=O)NCc2ccc3c(c2)OCO3)n1C	/	i	1.6%
CC(C)=CCCC(C)N(C=O)C(C)CCC=C(C)C (stereo not given)	3.15	i	-2.6%
CN(C)C(=O)CSCc1c(Cl)cccc1Cl	/	i	0.7%
O=S(=O)(Nc1ccc(Cl)c(C(F)(F)F)c1)c1cnc[nH]1	1.3	i	0.8%
Cc1cc(Cl)c(OCCCn2cncn2)c(Br)c1	-0.4	i	5.6%
O=C(Nc1cccc2ncccc12)c1cccnc1	-0.54	i	3.7%
O=S1(=O)CC(O)C(Nc2ccc(Cl)cc2)C1 (stereo not given)	/	i	-1.6%
Cc1csc2ncc(C(=O)NCc3ccccn3)c(=O)n12	-0.44	i	1.9%
O=C(CCc1nc2ccccc2[nH]1)NC1CCCCC1	-0.66	i	5.4%
CC(=O)NC(C1C(=O)CC(C)(C)CC1=O)(C(F)(F)F)C(F)(F)F	1.02	i	3.1%
CCCn1nc(NC(=O)c2cccs2)c2cc3cc(OC)ccc3nc21	-0.63	i	3.9%
Cc1[nH]nc(N2CCCCC2)c1[N+](=O)[O-]	/	i	8.2%
CCN(C(=O)c1ccc(NC(C)=O)cc1)c1ccccc1	/	i	-1.3%
COc1cc(OC)cc(C(=O)N2CCCc3ccccc32)c1	0.00346	i	-10.0%
CSc1nnnn1-c1ccc(C(=O)O)cc1	/	i	-0.2%
CCCCNC(=O)c1cc(-c2ccc(F)cc2)on1	-0.56	i	3.7%
Cc1nc2ccc(S(=O)(=O)NCC(=O)N3CCc4ccccc4C3)cc2s1	1.93	i	2.4%
COCCCNC(=O)c1c(N)n(/N=C/c2ccccn2)c2nc3ccccc3nc12	-0.28	i	-6.7%
CCC(C)NC(=O)c1cnc2n(c1=O)CCS2 (stereo not given)	-0.71	i	-5.1%
Cc1ccccc1N(CC(=O)NC1CCCC1)C(=O)C1(C)CC(=O)N=C2C=CC=CN21 (stereo not given)	/	i	3.6%
Cc1cc(C(=O)Nc2ccc(S(=O)(=O)N3CCCC3)cc2)cs1	0.45	i	2.0%
CCCNC(=O)N[C@@H](CCSC)C(=O)OC	/	i	-6.1%
CC(C)(C)NC(=O)COC(=O)c1cncc(Br)c1	/	i	0.7%
CC1Cc2ccccc2N1C(=O)CN1C(=O)COc2ccccc21 (stereo not given)	/	i	-1.1%
CN1CCN(C(=O)c2cc3nc(-c4ccccc4)cc(C(F)(F)F)n3n2)CC1	1.52	i	0.0%
CCOC(=O)c1c(N)n(CCOC(=O)c2cccs2)c2nc3ccccc3nc12	2.15	i	-3.9%
COCC(=O)NC(C)c1nc2ccccc2[nH]1 (stereo not given)	-0.15	i	-3.1%
Cc1ccc2cc(C(c3nnnn3C3CCCC3)N(Cc3ccco3)Cc3cccs3)c(=O)[nH]c2c1 (stereo not given)	/	i	-6.3%
CC(=O)c1ccc(NC(=O)Nc2ccccc2)cc1	/	i	2.3%
CCc1ccc(S(=O)(=O)NCc2cn3ccsc3n2)s1	-0.18	i	-0.7%
COc1ccc(CCNC(=O)C(C)OC(=O)c2ccco2)cc1OC (stereo not given)	1.04	i	-6.4%
CCn1c(SCC(=O)NCC2CCCO2)nnc1-c1ccccc1 (stereo not given)	/	i	-2.7%
Cc1cc(=O)oc(C)c1C(=O)Nc1cccc2ccccc12	/	i	-1.6%
CCC(=O)Nc1cccc(C(=O)c2ccccc2)c1	-0.67	i	2.8%
CCCN(CCC)CCNC(=O)C1CCN(Cc2nc(-c3ccc(Cl)cc3)oc2C)CC1	-0.44	i	-1.1%
CCCCNC(=O)c1cn(C)c2ccc(S(=O)(=O)N3CCOCC3)cc2c1=O	-0.8	i	-2.9%
O=C1CC(C(F)(F)C(F)(F)C(F)(F)C(F)F)=Nc2ccccc2N1	-0.89	i	6.6%
Cc1ccc(SCc2[nH]nc3c2C2(C(=O)Nc4ccc(F)cc42)C(C#N)=C(N)O3)cc1 (stereo not given)	/	i	-0.3%

The list is partial; rates above refer to the full screens.
